NPYLR7 agonist – mosquito NPYLR7 agonism; AID 1259423; 0.15% of 270,000 active; activation, % at 10 µM; HEK293T NPYLR7/Galpha15, GCaMP6s calcium fluorescence; in the data active = activation above about 40%;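 note: 0% = vehicle and 100% = reference agonist at the receptor; some compounds past the cut are filed as inactive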
NPYLR7 agonist max-min – second read-out of NPYLR7 agonist, no call of its own (marks repeat the call); activation, %; measured here: Max-Min RFU normalised activation; some inactives read as strong as hits;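 span of the calcium signal over five minutes; 0% = vehicle and 100% = native peptide agonist; compound fluorescence can raise it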
* hit, by the source's call; & = joins results of further samples. A portion of the library (hit frequency here may not be typical).

SMILES	NPYLR7 agonist	NPYLR7 agonist max-min
COCC1(C(=O)N2CCC3(CC2)c2ccccc2[C@@H](N)[C@@H]3O)CCC1	7	5
COC(=O)c1ccc(COc2coc(CN3c4ccccc4CC3C)cc2=O)cc1 (stereo not drawn)	-3	28
CS(=O)(=O)c1ccc(CNc2snc(Cl)c2C#N)cc1	1	-1
CC1(C(=O)NS(=O)(=O)c2ccc(Cl)s2)CCN1C(=O)C1(c2ccccc2)CCCC1 (stereo not drawn)	3	6
CCOC(=O)N1CCN(C(=O)c2cn(CC)cc3c(=O)n(-c4ccccc4)nc2-3)CC1	7	8
COc1ccc2c(c1)Cc1c-2nc2ccccc2c1C(=O)N(C)OC	0	4
O=S(=O)(Nc1ccc2nc(-c3cccc(C(F)(F)F)c3)nn2c1)c1ccccc1	5	0
Cc1cccc(NC(=O)Cn2nc(C(=O)Nc3ccccc3)ccc2=O)c1C	-1	-2
CC(C)COCCC(=O)NCCn1c(=O)[nH]c2ccccc21	3	3
Fc1ccc(-c2csc(=NCc3ccccc3)n2N=Cc2cccnc2)cc1	-5	-14
COc1ccc(C(O)(c2ccc(OC)cc2)c2ccc(CN(Cc3cccc(OC)c3)CC3CCCO3)o2)cc1 (stereo not drawn)	-1	3
C#C[C@]1(O)CC[C@@H]2C3[C@H](C)CC4=C(CCC(=O)C4)[C@H]3CC[C@@]21C (stereo partly drawn)	-4	0
CC1CN(c2cc(Oc3ccc(F)cc3Cl)ncn2)CCN1C(=O)c1ccccc1Cl (stereo not drawn)	2	9
CC(C)(C)n1ncc2c1CCN(C(=O)C1CCOC1)C2 (stereo not drawn)	-1	19
CCN1CCN(Cn2c(=S)n(CN3CCN(CC)CC3)c3ccccc32)CC1	0	7
CCC(Cn1ccnc1)NC(=O)c1ccc2c(c1)nnn2C (stereo not drawn)	27	14
Cc1ccc(-c2noc(CSc3nnnn3-c3ccccc3)n2)cc1F	1	-1
OC(CNCC1CCCO1)Cn1c2ccccc2c2ccccc21 (stereo not drawn)	11	8
COCCCNC(=O)CN(C)c1cc(C)nc2nc(C(F)(F)F)nn12	6	5
CC(=O)c1cccc(-n2c(Cc3ccc(O)cc3)n[nH]c2=O)c1	17	8
Cc1ccc2nc(-c3ccccc3C)c(NC(=O)COc3ccc(Cl)cc3)n2c1	5	12
Cc1nc(COc2nc(C(C)(C)C)no2)cs1	6	7
COC(=O)c1cc2n(n1)CCCN(C(=O)c1cc3c([nH]c1=O)CCCC3)C2	6	6
CC(C(=O)N1CCc2ccccc21)N1CCN(c2ccc(O)cc2)CC1 (stereo not drawn)	-13	-16
CC(C)NC(=O)[C@@]1(OCc2ccccc2F)CC(OCc2cccc(C(F)(F)F)c2)[C@@H]2OC(C)(C)O[C@@H]2C1 (stereo partly drawn)	23	26
Cc1ccc(Cc2nsc(NCCc3ccc(Cl)cc3Cl)n2)cc1	-6	2
CCn1ccnc1CN(C)C(=O)c1cn(Cc2ccccc2Cl)nn1	9	10
CC(=O)Nc1c(I)c(NC(C)=O)c(I)c(C(=O)O)c1I	-4	-10
C=CCn1c(SCc2ccc(C(=O)NCc3ccc(F)cc3)cc2)nnc1-c1ccc(C)cc1	17	10
NC(=O)C1CCCN1C1CCN(S(=O)(=O)c2ccc(F)cc2F)CC1 (stereo not drawn)	-6	-7
COc1nccnc1-c1c(C)cc(C)cc1C	7	-1
O=C(NC1CC1)c1cc2n(n1)CCN(C(=O)c1scc3c1OCCO3)C2	-2	-6
Oc1c(Cl)cc(Cl)c2ccc(N/N=C\c3cccc(Oc4ccccc4)c3)nc12	-7	-4
O=C(NCc1ccc(F)cc1)c1ccccc1N1CCC(NC(=O)C2CCC2)CC1	1	2
Cc1cc(-c2nc3c(C)cccc3o2)ccc1NC(=O)C(C)C	7	12
Cn1c(Sc2ccccc2C(=O)O)cc(=O)n(C)c1=O	13	7
COCCN(CC(=O)N(CCc1c[nH]c2ccccc12)Cc1ccc(F)cc1)C(=O)Nc1ccc(OC)cc1OC	19	24
Cc1noc(C)c1CSC(C)C(=O)NC(=O)NC1CC1 (stereo not drawn)	-3	-3
Cc1nc2ccc(C(=O)N(C)CCC3CCCCO3)cc2nc1C (stereo not drawn)	1	0
COCCCN(CC(=O)N1CCc2sccc2C1COc1ccc(Cl)cc1)C(=O)c1cccc(F)c1 (stereo not drawn)	11	6
Cc1ccc(S(C)(=O)=O)cc1NC(=O)C1CCN(c2ccc(C(F)(F)F)cc2[N+](=O)[O-])CC1	2	4
Cc1ccc(CN(C)C(=O)CN2CCCN(c3ccc(C(F)(F)F)cn3)CC2)cc1	3	1
CC(C)c1ccc(NC(=O)C(C2CCCC2)N2CCN(C(=O)c3cccc(Cl)c3)CC2)cc1 (stereo not drawn)	-5	-2
CO[C@H]1CN(c2ccccc2)S(=O)(=O)[C@@]12CCN(Cc1ccccc1)C2	25	34
Cc1nc(C)n(Cc2nc(-c3cccc(C(F)(F)F)c3)oc2C)n1	11	4
Cc1ccc(SCCC(C)(C)C#N)nc1	25	25
O=C1NC(C(=O)N2CC(c3cccnc3)C2)Cc2ccccc21 (stereo not drawn)	10	7
Cc1cc(N(C)CC(=O)NC(C)C)nc(C)n1	16	15
COC(=O)CC(=O)N1CCC(Cc2ccc(-c3ccccc3)cc2)CC1	2	10
CCCCCCn1c(NCCO)nc2c1c(=O)[nH]c(=O)n2C	15	19
CCOc1ccc(CN(Cc2ccc(F)cc2)Cc2nc(C(=O)NCc3ccco3)co2)cc1	20	12
O=C1CCNc2ccc(F)cc2CN1CC1CC1	23	33
CCOC(=O)C1C(=O)C=C(c2cccc(OC)c2)CC1c1ccccc1 (stereo not drawn)	9	12
CCOC(=O)c1c(C)n(-c2ccccc2)c2ccc(O)cc12	-6	-12
CC(=O)c1sc2ccccc2c1O	-4	-6
O=C(CCc1ncc(-c2ccc(F)cc2)o1)N1CCN(c2ccccc2)CC1	-6	-9
COc1ccc(-c2cc(NC(=O)Cn3ccc(=O)[nH]c3=O)ccc2OC(F)F)cc1	1	-4
CCCC(=O)NC(=O)/C(C#N)=C/Nc1ccccc1Cl	12	16
COc1cccc(NC(=O)NC(c2ccccc2)c2cccs2)c1 (stereo not drawn)	6	3
COc1ccc(NC(=O)N(Cc2ccccc2)Cc2cccn2Cc2ccc(F)cc2)c(OC)c1	-10	-3

Later entries
SMILES	NPYLR7 agonist	NPYLR7 agonist max-min
Cc1ccccc1NC(=O)CCCn1nc(-c2ccc(F)cc2)ccc1=O	5	5
Nc1ccc(S(=O)(=O)O)cn1	-4	-3
COc1cc(C2c3c([nH]c(=O)[nH]c3=O)N=C3CC(C)(C)CC(=O)C32)cc(OC)c1OC (stereo not drawn)	-7	-14
CCCc1cnc(C)nc1NCc1cccnc1N1CCN(C(C)=O)CC1	8	7
COc1ccc(-c2csc(=Nc3cccc(Cl)c3)n2NC(=O)C(C)Oc2ccc(Cl)cc2C)cc1 (stereo not drawn)	-10	-20
CC1Cc2cc(C(=O)N(C)Cc3ccc(Cl)c(Cl)c3)ccc2N1S(C)(=O)=O (stereo not drawn)	1	-8
CN1CC[C@H](N(Cc2ccccc2)C(=O)Nc2ccccc2)C[C@H](O)C1	3	-1
CCC(CC)NC(=O)Cn1cc(-c2ccccc2)cn1	8	5
Nc1nc(NCCNc2ccccc2)cc(N2CCOCC2)n1	2	0
C=CCN(Cc1csc(COc2ccc(OC)cc2)n1)C(=O)c1ccc(OC)cc1	2	5
COc1cccc(C(O)c2nc(-c3cnn(C)c3)cs2)c1 (stereo not drawn)	9	6
CC(C)Oc1ccc(S(=O)(=O)N2CCOCC2)cc1NCc1c(F)cccc1Cl	0	-1
COC(=O)CCc1c(C)[nH]c(=O)c(C#N)c1C	0	-2
COc1ccc(CN2CCN(Cc3ccc4nsnc4c3)CC2CCO)c(C)c1C (stereo not drawn)	-7	-10
COc1ccc(NC(=O)NCc2nnc(SCc3ccccc3C)n2-c2ccc(C)cc2)cc1	3	17
CN(C)C(=O)c1cnc(C23CC4CC(CC(C4)C2)C3)c(C(=O)N(C)C)c1	5	3
O=S(=O)(c1ccc(=S)[nH]c1)N1CCCCCC1	-1	-1
COc1cccc(/C=C2\SC(=S)N(CCC(=O)NNC(=O)c3ccccc3OC)C2=O)c1	10	10
O=C(COc1ccc(Br)cc1F)Nc1ccc(F)cc1F	-6	-8
CCSc1nc(NCC(C)C)c2cnn(CCNC(=O)Cc3ccc(F)cc3)c2n1	10	8
CSc1ccccc1C(=O)N1CCc2ccc(NC(=O)c3ccccn3)cc2C1	-5&-3	-6&-4
C[N+](C)(CCCCCC[N+](C)(C)CCCN1C(=O)c2cccc3cccc(c23)C1=O)CCCN1C(=O)c2cccc3cccc(c23)C1=O	0	-21
O=C1NCC(=O)N2CCN(C(=O)Cc3ccc4c(c3)OCO4)CC12 (stereo not drawn)	6	4
Cc1c(C)n2c3c(=O)n(Cc4ccccc4)c(=O)n(C)c3nc2n1Cc1ccco1	21	14
COc1nc2c(cc1C(=O)N1C[C@H]3C[C@H](O)[C@H](O)C[C@H]3C1)CCC2	-4	-3
CCOc1ccc(C(=O)Nc2cc(C(C)(C)C)nn2-c2cc(Cl)ccc2Cl)cc1	18	17
CS(=O)(=O)c1cccc(C(=O)N(Cc2ccccn2)c2nc3c(F)cc(F)cc3s2)c1	-6	-7
COc1ccc(NCc2nn(CC(=O)c3ccc(Br)cc3)c3[n+]2CCCCC3)cc1	0	-2
O=C(Cc1csc(N2CCNC2=O)n1)NC1CCC(c2ncno2)CC1 (stereo not drawn)	2	-2
CC(C)CNC(=O)COC(=O)C(c1ccccc1)c1ccccc1	-1	-2

15 neighbouring records from above:
SMILES	NPYLR7 agonist	NPYLR7 agonist max-min
COC(=O)CCc1c(C)[nH]c(=O)c(C#N)c1C	0	-2
COc1ccc(CN2CCN(Cc3ccc4nsnc4c3)CC2CCO)c(C)c1C (stereo not drawn)	-7	-10
COc1ccc(NC(=O)NCc2nnc(SCc3ccccc3C)n2-c2ccc(C)cc2)cc1	3	17
CN(C)C(=O)c1cnc(C23CC4CC(CC(C4)C2)C3)c(C(=O)N(C)C)c1	5	3
O=S(=O)(c1ccc(=S)[nH]c1)N1CCCCCC1	-1	-1
COc1cccc(/C=C2\SC(=S)N(CCC(=O)NNC(=O)c3ccccc3OC)C2=O)c1	10	10
O=C(COc1ccc(Br)cc1F)Nc1ccc(F)cc1F	-6	-8
CCSc1nc(NCC(C)C)c2cnn(CCNC(=O)Cc3ccc(F)cc3)c2n1	10	8
CSc1ccccc1C(=O)N1CCc2ccc(NC(=O)c3ccccn3)cc2C1	-5&-3	-6&-4
C[N+](C)(CCCCCC[N+](C)(C)CCCN1C(=O)c2cccc3cccc(c23)C1=O)CCCN1C(=O)c2cccc3cccc(c23)C1=O	0	-21
O=C1NCC(=O)N2CCN(C(=O)Cc3ccc4c(c3)OCO4)CC12 (stereo not drawn)	6	4
Cc1c(C)n2c3c(=O)n(Cc4ccccc4)c(=O)n(C)c3nc2n1Cc1ccco1	21	14
COc1nc2c(cc1C(=O)N1C[C@H]3C[C@H](O)[C@H](O)C[C@H]3C1)CCC2	-4	-3
CCOc1ccc(C(=O)Nc2cc(C(C)(C)C)nn2-c2cc(Cl)ccc2Cl)cc1	18	17
CS(=O)(=O)c1cccc(C(=O)N(Cc2ccccn2)c2nc3c(F)cc(F)cc3s2)c1	-6	-7

Additional structures
SMILES	NPYLR7 agonist	NPYLR7 agonist max-min
CCOc1ccc(-c2ccc(=O)n(CCNS(=O)(=O)c3ccc(CC)cc3)n2)cc1	-1	-2
CCOc1cccc(CN2CCN(C3CCCC3)C(CCO)C2)c1O (stereo not drawn)	-5	-8
COCCN(CC(=O)N(Cc1ccc2c(c1)OCO2)Cc1ccco1)C(=O)C1CCCCC1	-8	-1
Cn1nnnc1SCc1nc(-c2ccc(Cl)cc2)no1	-2	4
O=C(Nc1cccc(NC(=O)c2cccs2)c1)c1ccco1	-3	-8
CCOC(=O)C1(CCOC)CCN(Cc2ccc(N(C)c3ccccc3)cc2)CC1	11	8
CCOc1cc([N+](=O)[O-])cc(/C=N\Nc2nc(N3CCCC3)nc(N3CCOCC3)n2)c1O	-4	-9
Cc1ccc(S(=O)(=O)Nc2ccc(Nc3cnc(-c4ccc(OC(F)(F)F)cc4)cn3)cc2)cc1	0	0
CCCc1cc(-c2n[nH]c(C)c2-c2ccc3c(c2)OCCO3)c(O)cc1O	-2	-4
CCOC(=O)c1sc2[nH]c(-c3cccnc3)cc(=O)c2c1C	7	5
CCOc1ccc(-c2cc(C)n3nc(C(=O)N4CCN(c5ccccc5)CC4)cc3n2)cc1	8	5
CC(C(=O)NCc1ccccc1)N1CCN(c2ccccc2)CC1 (stereo not drawn)	1	1
COC(=O)CNC=CC(=O)C(F)(F)F	2	4
CCOc1ccc(-c2ccc(=O)n(CCNS(=O)(=O)c3ccc(Oc4ccccc4)cc3)n2)cc1	-1	-1
O=C(CCC(=O)c1ccc(-c2ccccc2)cc1)NC1=NCCS1	1	0
CCCc1cc(C(=O)NCC2(O)CCNC2)ccn1 (stereo not drawn)	6	-3
CCCCn1c(=O)c2c(nc3n2CCCN3c2ccc(Br)cc2)n(C)c1=O	7	5
O=C(CCC(=O)N1CCN(c2ccccn2)CC1)N[C@@H]1CCCc2ccccc21	-6	-12
CCOC(=O)c1c(NC(=O)c2ccc3nonc3c2)c(-c2cccc(F)c2)cn1C	4	5
CCN(C(=O)c1ccc(OCC(F)(F)F)nc1)C1CCN(c2ccccc2)C1=O (stereo not drawn)	1	-1
Cc1ccccc1-n1ncc2c(C3CC3)nn(CC(=O)N3CCCC3)c(=O)c21	7	3
CCCc1ccc(CN2CCCC(c3nn(C)c(=O)n3CC)C2)o1 (stereo not drawn)	2	0
COc1ccc(S(=O)(=O)NC2CC2)cc1OC	2	24
Cn1c(SCC(=O)N2CCCC2)nc2c([nH]c3ccccc32)c1=O	0	29
Cc1cnn(Cc2ccccc2Cl)c1NC(=O)c1ncc(F)cc1F	6	4
Cc1nsc(N2CCCN(C(C)C(=O)NCC(=O)Nc3c(C)cccc3C)CC2)n1 (stereo not drawn)	-3	-3
O=C(Cc1cccs1)NC1CCN(c2ccccc2C(=O)NC2CC2)CC1	2	7
CCOc1nc(-c2ccc(OC)cc2)n(-c2cccc(NC(=O)c3cccc(F)c3)c2)n1	22	23

Bioassay records from PubChem.
